Source: PubChem BioAssay (National Center for Advancing Translational Sciences (NCATS))
ClpP mod: qHTS Assay for Activators of ClpP; Potency, µM (top dose mostly 57.5 µM), without a hit: at the highest dose activity change, negative = active; purified B. subtilis ClpP, FRET peptide cleavage, 20 min; actives 1.9% (n = 340,000); ATP-dependent Clp protease proteolytic subunit (Bacillus subtilis (strain 168)), P80244; active = well fitted falling curve with a large enough effect; inconclusive = small, poorly fitted or top-dose-only effect; inactive = no such curve, though single readings can be large or run the other way; further: potency means the concentration at half of the fitted maximal effect; the source files actives as falling curves though it sought activators and does not explain the sign; nearly all actives have a fitted effect of over 65% in size; many hits overshoot -100%
Target sequence (P80244 whole entry, looked up): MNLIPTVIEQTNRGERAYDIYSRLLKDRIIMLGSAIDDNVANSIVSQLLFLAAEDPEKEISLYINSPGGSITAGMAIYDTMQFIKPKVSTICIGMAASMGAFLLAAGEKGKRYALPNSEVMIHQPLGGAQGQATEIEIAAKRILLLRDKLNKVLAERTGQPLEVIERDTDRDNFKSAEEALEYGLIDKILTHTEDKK
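FRET quenching reversal measured ClpP activation: 10 microg/mL B. subtilis ClpP at pH 8 with the FRET-FV decapeptide, read at 430 nm after 320 nm excitation. The 20-min minus 0-min signal was scaled between DMSO/no-enzyme wells and ADEP (5.8 microM final).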
Menin-MLL FL inh: inhibitors of human menin-MLL interaction, wild-type MLL peptide | Fluorescence polarization, fluorescein-MLL peptide displacement from menin | FP activity change, % at 61.4 µM | 290,000 tested, under 10 active; inconclusive = falling polarisation curve, or a change in total fluorescence; inactive = total fluorescence flat and polarisation flat or rising; no compound was filed as active; the % refers to the polarisation; negative = inhibition;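 further: % of control where 0% means no effect; inhibitors lower the polarisation; unlabelled MLL peptide was the positive control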
gsp antag: gsp mutant antagonism; gsp-mutant cells, cAMP HTRF, 30 min; control for the full effect not named in the record; AID 624288; Potency, µM (highest dose often 76.9 µM), for inactives: top-dose activity change, negative = inhibition, hits mostly inhibitors; actives 0.4% (n = 340,000); active = falling curve of any shape with a large fitted effect; inconclusive = falling curve, mostly with a smaller effect; inactive = flat or rising curve; cell line not stated here;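 further: intracellular cAMP measured with PDE inhibitor Ro 20-1724 present during compound exposure; potency means the concentration at half of the fitted maximal effect; on the % scale 0 is the no-effect control and ±100 the full control effect; nearly all actives have a fitted effect of over 65% in size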
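HTRF cAMP read-out (cAMP-d2 plus anti-cAMP antibody-K in lysis buffer, 30 min RT). Before lysis, cells are exposed to compounds with […] for 30 min at 37C in DPBS containing Ca/Mg, BSA and Tween 20.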
TRPML1 ag: human mucolipin-1 channel agonism | TRPML1-expressing cells, Ca2+ dye fluorescence, FDSS; host cell line not named in the record; reference of the full effect not given here | activation, % (concentration not given with the values) | actives 0.12% (n = 410,000) | AID 624414; in the data active = activation above about 50%; inconclusive = about 30% to 50%; inactive = below about 30%; further: 0% is about no effect; the text of the record puts the active cut at 80%
Target sequence (Q9GZU1 whole entry, looked up): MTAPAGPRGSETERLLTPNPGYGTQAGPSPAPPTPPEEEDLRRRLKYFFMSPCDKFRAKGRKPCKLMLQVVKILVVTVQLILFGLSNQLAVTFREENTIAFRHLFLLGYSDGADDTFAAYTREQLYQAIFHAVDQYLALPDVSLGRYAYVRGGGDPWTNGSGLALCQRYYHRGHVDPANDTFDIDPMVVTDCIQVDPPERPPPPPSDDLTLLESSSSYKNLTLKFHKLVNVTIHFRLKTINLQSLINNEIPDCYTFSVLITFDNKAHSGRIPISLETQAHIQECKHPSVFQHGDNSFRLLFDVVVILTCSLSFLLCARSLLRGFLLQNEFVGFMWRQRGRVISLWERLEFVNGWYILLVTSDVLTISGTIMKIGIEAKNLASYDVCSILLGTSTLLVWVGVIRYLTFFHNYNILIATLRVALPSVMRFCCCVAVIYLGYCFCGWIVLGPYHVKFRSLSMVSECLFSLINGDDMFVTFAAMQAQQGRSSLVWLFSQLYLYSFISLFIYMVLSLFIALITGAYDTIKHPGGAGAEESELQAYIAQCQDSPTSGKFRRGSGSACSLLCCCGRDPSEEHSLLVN
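TRPML1-DL cells, Tet-induced overnight (~16 h, 37 degrees C), loaded 45-90 min at room temperature with Ca8 no-wash calcium dye plus quencher. FDSS fluorescence: 10 s baseline, compound pin-transfer, 110 s agonist read, then EC80 54-4 (4uM final) and 110 s antagonist read.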
gsp ag: gsp mutant agonism; gsp mutant cells, cAMP HTRF, 30 min; control for the full effect not named in the record; Potency, µM (titrated, usually from 76.9 µM), without a hit: top-dose activation (cAMP increase), usual class: activators; actives 0.13% (n = 340,000); active = well fitted activation curve with a large enough effect; inconclusive = small, poorly fitted or top-dose-only effect, or another doubt; inactive = no such curve, though single readings can be large or run the other way; cell line not stated here;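 further: phosphodiesterase inhibitor Ro 20-1724 added with compounds to block cAMP breakdown; potency means the concentration at half of the fitted maximal effect; nearly all actives have a fitted effect of over 60% in size; about a fifth of the inactives were tested at one dose only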
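Cells stably selected in G418 were plated at 2000/well, grown 16-24 hr, then given compounds in DMSO with the PDE inhibitor […] (300 uM solution added) for 30 min at 37C; cAMP was read by HTRF.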
TRPML1 blocker: human mucolipin-1 channel inhibition; Q9GZU1; TRPML1-inducible cells, Ca2+ dye fluorescence, FDSS; stronger effect = lower value; inhibition of EC80 agonist-evoked calcium signal; activity change, negative = inhibition, % (no concentration beside the values); actives 0.02% (n = 390,000); in the data active means activity change below about -50%; inconclusive means about -30% to -50%; inactive means above about -30%;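 further: stimulus is agonist 54-4 at its EC80 concentration; on the % scale 0 is the no-effect control and ±100 the full control effect; compound concentration not given in the record; the text of the record puts the active cut at -80%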
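Tet-induced TRPML1-DL cells loaded with Ca8 no-wash calcium dye were read kinetically on FDSS. Compound addition was followed by EC80 agonist 54-4 (4 uM final); inhibition was read over 110 s.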
An asterisk follows results filed as active; u = inconclusive; x = not tested or not shown; [ ] = another dose, or the depositor's remark. Outcome played no part in choosing rows, and some 2.1% of all compounds hit somewhere here.

No.	SMILES	ClpP mod	Menin-MLL FL inh	gsp antag	TRPML1 ag	gsp ag	TRPML1 blocker
1	Cc1ccc([C@@H]2[C@@H]3C(=O)N(C)C(=O)[C@@H]3[C@]3(C)C(=O)N(CC4CC4)CC(=O)N23)o1	-0.9%	-1.3	14%	-0.7	x	-13
2	O=C(CNC(=O)c1ccccc1Cl)N/N=C/C=C/c1ccccc1	x	-1.1	4%	0.4	-2%[15.4 µM]	5
3	COc1cc(NC(=O)c2ccccc2[N+](=O)[O-])ccc1NC(=O)C(C)C	-1.2%	5.9	-4%	1.3	u	-21
4	CCO/C=C1/C(=O)N(CC)c2ccccc21	-0.9%	-1.3	-3%	-0.8	16%	-10
5	Cc1ccc(OCc2nc3ccccc3n2Cc2ccccc2Cl)cc1	1.3%	x	x	0.3	x	38
6	COc1cccc(Nc2ncccc2C(=O)NCc2ccccc2)c1	0.2%	u	-23%	0.9	-4%	-6
7	Cc1c(C(=O)NCCc2ccc(S(N)(=O)=O)cc2)sc2nc3n(c(=O)c12)CCCC3	-9.3%	x	x	0.2	x	17
8	c1ccc(C(c2ccccc2)N2CCN(C(c3ccccn3)c3nnnn3C3CCCC3)CC2)cc1 (centres undefined)	22µM*	1.9	2%	-0.7	3%[15.4 µM]	9
9	CC[N+](CC)(CC)C/C=C/CN1CCCCC1	-1.6%	2.5	8%	0.0	-5%	-3
10	CCC1(C2=CCCCC2)C(=O)NC(=O)N=C1N (centres undefined)	x	x	10%	0.1	-22%	1
11	C#CCn1c(=NC(=O)c2ccc3c(c2)OCCO3)sc2cc(OC)c(OC)cc21	4.4%	x	x	-0.9	x	-3
12	COc1cccc(/C=N/c2oc(-c3ccccc3)cc2C#N)c1O	60%	4.3	-18%	2.9	-3%	21
13	O=C1/C(=C/c2cccs2)CCC1C1CCCC1 (centres undefined)	x	-7.1	4%	1.0	4%	8
14	O=C(CSc1nc2nn(-c3ccccc3)c(=O)c-2c2n1CCCCC2)Nc1ccc(F)cc1F	-1.6%	x	-11%	2.7	1%	-9
15	Cc1cc(C(C)(C)C)ccc1NC(=O)CC(C)(C)CC(=O)O	x	5.0	1%	-0.1	-1%[15.4 µM]	0
16	COC(=O)c1sccc1NC(=O)CSc1ccccc1N	1.1%	1.8	4%	-0.5	-21%	-10
17	CCCn1c(N)c(C(=O)CSc2nnc(-c3cccs3)n2C2CC2)c(=O)[nH]c1=O	u	x	9%	0.1	-35%[inhibitor]	23
18	COc1cccc(C(C(=O)NC2CCCCC2)N(C(=O)Cc2cccs2)c2ccc(-n3cnnn3)c(OC)c2)c1 (centres undefined)	9.6%	5.2	0%	0.5	u	3
19	O=C(c1ccc(-c2ccccc2)cc1)N1CCN(c2ncccn2)CC1	-17%	1.9	9%	0.9	7%	9
20	N#C/C(=C\c1c(Cl)cccc1Cl)c1nn(-c2ccccc2)c(-n2cccc2)c1C#N	x	2.7	-9%	0.5	5%	6

Whole records from above. Values in the order: ClpP mod	Menin-MLL FL inh	gsp antag	TRPML1 ag	gsp ag	TRPML1 blocker
Results for Cc1ccc([C@@H]2[C@@H]3C(=O)N(C)C(=O)[C@@H]3[C@]3(C)C(=O)N(CC4CC4)CC(=O)N23)o1 : -0.9%	-1.3	14%	-0.7	x	-13
Results for Cc1ccc(OCc2nc3ccccc3n2Cc2ccccc2Cl)cc1 : 1.3%	x	x	0.3	x	38
Results for O=C(c1ccc(-c2ccccc2)cc1)N1CCN(c2ncccn2)CC1 : -17%	1.9	9%	0.9	7%	9

Four compounds from above, arranged by SMILES length, smallest number first:
No.	SMILES	ClpP mod	Menin-MLL FL inh	gsp antag	TRPML1 ag	gsp ag	TRPML1 blocker
13	O=C1/C(=C/c2cccs2)CCC1C1CCCC1 (centres undefined)	x	-7.1	4%	1.0	4%	8
6	COc1cccc(Nc2ncccc2C(=O)NCc2ccccc2)c1	0.2%	u	-23%	0.9	-4%	-6
12	COc1cccc(/C=N/c2oc(-c3ccccc3)cc2C#N)c1O	60%	4.3	-18%	2.9	-3%	21
17	CCCn1c(N)c(C(=O)CSc2nnc(-c3cccs3)n2C2CC2)c(=O)[nH]c1=O	u	x	9%	0.1	-35%[inhibitor]	23

Returning to the listing, repeating the five entries before the break.
No.	SMILES	ClpP mod	Menin-MLL FL inh	gsp antag	TRPML1 ag	gsp ag	TRPML1 blocker
16	COC(=O)c1sccc1NC(=O)CSc1ccccc1N	1.1%	1.8	4%	-0.5	-21%	-10
17	CCCn1c(N)c(C(=O)CSc2nnc(-c3cccs3)n2C2CC2)c(=O)[nH]c1=O	u	x	9%	0.1	-35%[inhibitor]	23
18	COc1cccc(C(C(=O)NC2CCCCC2)N(C(=O)Cc2cccs2)c2ccc(-n3cnnn3)c(OC)c2)c1 (centres undefined)	9.6%	5.2	0%	0.5	u	3
19	O=C(c1ccc(-c2ccccc2)cc1)N1CCN(c2ncccn2)CC1	-17%	1.9	9%	0.9	7%	9
20	N#C/C(=C\c1c(Cl)cccc1Cl)c1nn(-c2ccccc2)c(-n2cccc2)c1C#N	x	2.7	-9%	0.5	5%	6
21	Cc1ccccc1NC(=O)CN1CCC(NC(=O)Nc2ccccc2)CC1	-1.5%	1.8	-5%	2.8	-2%	14
22	CCOC(=O)/C(C#N)=C/c1c(N2CCN(C)CC2)nc2c(C)cccn2c1=O	1.1%	-1.4	1%	-0.7	u	12
23	COc1cccc(CNc2nc3cc(-c4ccc(F)cc4)sc3c(=O)n2C)c1OC	u	x	x	1.0	x	-6
24	O=C(Nc1ccc(F)cc1)c1ccc(NC(=O)C2CCCO2)cc1 (centres undefined)	1.5%	2.5	11%	-0.8	-5%[15.4 µM]	4
25	Cc1cccc(NS(=O)(=O)c2ccc(-c3cnc(C4CC4)o3)cc2)c1	-1.3%	x	1%	-0.9	8%	-7
26	Cc1ccc(S(=O)(=O)Nc2cccc(-c3ccc(N4CCCCCC4)nn3)c2)c(C)c1	-8.6%	x	u	1.8	4%	-24
27	COc1cccc(CNC(=O)CCc2nnc3n(C)c(=O)c4sccc4n23)c1	-4.0%	x	x	-0.2	x	1
28	COc1ccccc1N=Cc1nc(-c2ccccc2)oc1OC(C)=O	-4.0%	6.6	18%	3.2	-5%	0
29	CN(C(=S)Oc1ccc(C(=O)Nc2ccccc2)cc1)c1ccccc1	-7.3%	3.5	-9%	3.2	-20%	-5
30	CCOc1ccccc1N1CC(c2nc3ccccc3n2CCCCOc2cc(C)ccc2C)CC1=O (centres undefined)	0.7%	x	x	-0.4	x	-6
31	CN(Cc1ccco1)S(=O)(=O)c1ccc(CN2C(=O)c3cccnc3C2=O)s1	0.5%	-3.2	15%	1.3	-30%	4
32	COC(=O)Nc1ccc(S(=O)(=O)Nc2ccccc2F)cc1	0.5%	1.4	9%	-0.6	0%	-9
33	COC(=O)c1cc(-c2ccc(S(=O)(=O)N3CCCC(C)C3)cc2)c(C(F)(F)F)s1 (centres undefined)	0.3%	2.2	-3%	3.3	-2%	33
34	C[C@H](CO)N1C[C@H](C)[C@@H](CN(C)Cc2cccnc2)OCc2cnnn2CCCC1=O	1.3%	x	x	0.6	-15%	38
35	COc1ccc(S(=O)(=O)NCC2CCCN(C(=O)C3CCCC3)C2)cc1 (centres undefined)	-1.8%	-0.3	-2%	-0.3	3%	-18
36	CCOC(=O)C1(Cc2ccccc2)CCN(CC2CC=CCC2)CC1 (centres undefined)	x	-1.4	x	-0.5	7%[15.4 µM]	-29
37	CCOc1ccc(CCNC(=O)C2CCCN(c3nnc(C)c4c(C)n(-c5ccccc5)nc34)C2)cc1 (centres undefined)	3.8%	x	x	2.2	x	4
38	Cc1cc(=O)oc2c(C)c3occc3cc12	x	-3.6	-2%	-0.2	11%	1
39	CC(C)C[C@@H]1CN=C(N)N1C[C@@H]1CCCN1C[C@H](C)N1C[C@@H](Cc2ccccc2)N(CCCC2CCCC2)C1=N	2.3%	x	6%	1.2	x	20
40	Cc1ccc2c(CC(=O)NCc3cccs3)coc2c1	1.4%	1.4	11%	-0.5	1%	0
